miR-21 reporter = qHTS Assay for Modulators of miRNAs and/orActivators of miR-21; HeLa miR-21 FLuc reporter, luciferase, 48 h; Potency, µM (series often up to 38.3 µM), for inactives: at the highest dose reporter change, positive = more light; 340,000 tested, under 10 active; active = well fitted rising curve with a large enough effect; inconclusive = small, poorly fitted or top-dose-only effect; inactive = no such curve, though single readings can be large or run the other way;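 note: % of control where 0% means no effect; miR-21 action dims this reporter so a rising signal means less miR-21 action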
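Using DMEM plus 10% FBS, HeLa miR-21-FLuc cells are incubated with test compounds (final up to about 40uM) for 48 hours; firefly luciferase signal is then imaged following reagent-mediated lysis.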
Rango release inh = qHTS Assay for Inhibitors of RanGTP induced Rango (Ran-regulated importin-beta cargo) - Importin beta complex dissociation; Snurportin-1 (Homo sapiens) + GTP-binding nuclear protein Ran (Homo sapiens) + Importin …; Biochemical FRET Rango-importin beta, RanGTP-induced dissociation; Potency, µM (doses to about 46.1 µM), without a hit: at the top dose activity change, negative = inhibition; 340,000 compounds, 0.071% hits; active means falling FRET ratio curve, often poorly fitted, with flat reads before Ran was added; inconclusive means other falling curves, or compound fluorescence or quenching; inactive means flat or rising ratio curve;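 note: potency is the fitted concentration of half-maximal effect; % of control where 0% means no effect; nearly all actives have a fitted effect of over 45% in size; -100% = wells without RanGTP and RCC1; the record marks most hits as doubtful in a second field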
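Two FRET readings bracket the reaction: one 5 min after compound meets Rango–importin beta, another 45 min after RanGTP-RCC1 (0.6 uM Ran, 0.2 uM RCC1, 2 mM GTP) is added. Only the second defines inhibition.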
GLA inh pH 4.5 = qHTS Assay for Inhibitors of Human alpha-Galactosidase at pH 4.5; Alpha-galactosidase A (Homo sapiens), P06280; purified enzyme, 4-MU-alpha-Gal fluorescence, pH 4.5; activity change, negative = inhibition, % at 105 µM; 230,000 tested, under 10 active; AID 1467, 2008; inconclusive = small, poorly fitted or top-dose-only inhibition, or a rising curve; inactive = flat fitted curve, though single readings scatter; no compound was filed as active;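 note: 0% = full activity with enzyme and -100% = basal without enzyme; dose as in the result columns while the protocol names 77 µM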
Rango-impB inh = qHTS Assay for Inhibitors of Rango (Ran-regulated importin-beta cargo) - Importin beta complex formation | Potency, µM (doses to about 92.2 µM), without a hit: at the top dose inhibition of complex formation | 340,000 compounds, 0.031% hits | AID 540263, 2011 | Rango CFP/YFP FRET sensor + importin beta, 45 min; active = rising FRET ratio curve, often small or poorly fitted; inconclusive = mostly compound fluorescence or quenching in the first reads; inactive = flat curves in all reads;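 note: potency is the fitted concentration of half-maximal effect; 0% = DMSO wells and 100% = buffer wells lacking importin beta; nearly all actives have a fitted effect of over 15% in size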
Target sequence (Q14974 whole entry, looked up): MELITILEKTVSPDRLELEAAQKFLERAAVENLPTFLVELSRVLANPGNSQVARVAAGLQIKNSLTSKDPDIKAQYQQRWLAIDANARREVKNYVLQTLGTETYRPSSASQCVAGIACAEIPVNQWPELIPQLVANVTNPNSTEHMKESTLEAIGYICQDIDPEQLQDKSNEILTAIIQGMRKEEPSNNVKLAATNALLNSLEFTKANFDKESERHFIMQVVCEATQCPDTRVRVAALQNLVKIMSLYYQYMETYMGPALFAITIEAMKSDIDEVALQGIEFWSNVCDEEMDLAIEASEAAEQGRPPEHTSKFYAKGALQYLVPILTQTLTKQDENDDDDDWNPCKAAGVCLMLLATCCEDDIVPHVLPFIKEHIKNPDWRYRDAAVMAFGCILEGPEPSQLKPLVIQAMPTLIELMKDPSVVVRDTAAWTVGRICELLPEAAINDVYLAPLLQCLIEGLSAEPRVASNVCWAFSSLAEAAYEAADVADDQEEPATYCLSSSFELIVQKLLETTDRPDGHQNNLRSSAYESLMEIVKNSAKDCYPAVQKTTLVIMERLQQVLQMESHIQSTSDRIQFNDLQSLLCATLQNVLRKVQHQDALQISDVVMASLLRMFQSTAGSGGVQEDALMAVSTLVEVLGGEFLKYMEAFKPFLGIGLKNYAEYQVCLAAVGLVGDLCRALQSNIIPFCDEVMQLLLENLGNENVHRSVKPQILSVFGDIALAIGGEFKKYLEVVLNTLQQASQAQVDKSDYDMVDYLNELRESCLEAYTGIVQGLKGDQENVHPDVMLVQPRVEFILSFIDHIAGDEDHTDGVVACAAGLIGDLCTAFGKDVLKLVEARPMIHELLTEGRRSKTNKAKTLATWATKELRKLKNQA
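FRET biosensor Rango (snurportin 1 IBB between N-terminal EYFP and C-terminal Cerulean), 50 nM in PBS/1 mM DTT/0.02% Tween-20/0.1% BSA, preincubated 5 min RT with compound; 0.125 microM importin beta added, 45 min RT, CFP/YFP FRET ratio read.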
* marks the source's active call; other numbers are inactive results; ? = inconclusive; nt = not tested or not shown. Not all compounds are listed, so the mix of outcomes need not match the whole.

SMILES	miR-21 reporter	GLA inh pH 4.5	Rango release inh	Rango-impB inh
COCCCN(C(=O)Cc1csc(-c2cccc(Cl)c2)n1)c1c(N)n(Cc2ccccc2)c(=O)[nH]c1=O	nt	nt	-25.4%	?
CC(=O)c1cnc(Nc2cccc(C)c2)s1	-60.5%	-6.4	-2.9%	?
COCCOc1nc2c(c(=O)n(C)c(=O)n2C)n1Cc1cccc(OC)c1	4.1%	3.8	15.7%	4.5%
CCC1C/C(=C\c2cc(OC)c(OC)cc2OC)C(=O)/C(=C/c2cc(OC)c(OC)cc2OC)C1 (stereo not drawn)	?	nt	?	?
Cc1ccc(N(CC(N)=O)C2SC(=O)N(C)C2=O)cc1 (stereo not drawn)	-4.4%	2.7	2.1%	4.0%
O=C(/C=C/c1ccco1)Nc1ccc(S(=O)(=O)N2CCOCC2)cc1	-1.0%	-0.2	-12.3%	-4.0%
Cn1cccc1C(C(=O)NC1CCCCC1)N(C(=O)Cc1cccs1)C1CC1 (stereo not drawn)	-0.4%	9.0	5.6%	7.2%
Cc1cc(=O)oc2ccc(OC(=O)CC(C)C)cc12	-18.5%	3.2	6.2%	0.3%
C/C(CC(=O)Nc1cccc(Cl)c1)=N\NC(=O)Cc1ccc(Cl)cc1	-10.0%	5.7	1.3%	-2.7%
CCN(CC)S(=O)(=O)c1ccc(N2CCOCC2)c(NC(=O)Cc2cccc3ccccc23)c1	0.1%	-14.2	0.4%	1.6%
Cc1ccc(C(=O)c2cc(C)sc2NC(=O)CN2CCN(C(=O)c3ccco3)CC2)cc1	-3.0%	-24.1	-2.0%	0.1%
COc1ccccc1NC(=S)Nc1cccc(F)c1	-20.3%	7.4	-1.7%	1.3%

Next records follow:
SMILES	miR-21 reporter	GLA inh pH 4.5	Rango release inh	Rango-impB inh
CCOc1ccc(OCC(O)CN2CCN(S(=O)(=O)c3cccc(C(F)(F)F)c3)CC2)cc1 (stereo not drawn)	6.1%	nt	-1.3%	-1.0%
CCN1CCN(C(=O)NC2CC(=O)N(c3ccc(OC)cc3)C2)CC1 (stereo not drawn)	-0.2%	-3.5	?	0.8%
CCOC(=O)C1=C(C)NC(C)=C(C(=O)OCC)C1C(=O)OCC(=O)N(C)C	-4.0%	-5.9	-12.5%	-2.4%
COc1ccc(C(=O)N2CCc3ccccc32)cc1	-61.2%	-2.4	5.3%	-1.8%
CCN1CC=C2C(C#N)=C(N)C(C#N)(C#N)C(CCc3ccccc3)C2C1 (stereo not drawn)	-2.5%	18.6	?	?
CN(CC(=O)N1CCCCCC1)S(=O)(=O)c1ccccc1	-42.3%	nt	-3.2%	-1.3%
Cc1ccc(C(C)C)cc1OCC(=O)NCCCn1ccnc1	nt	nt	-11.4%	-1.3%
CCOc1cc(S(=O)(=O)NCc2ccncc2)c(C)cc1C	9.6%	-7.3	5.8%	0.9%
O=C(O)c1ccccc1NN=C1CCCCC1	-56.8%	0.9	-3.3%	-3.4%
O=C(c1cccc(Cl)c1)N1CCC(=O)N(C(COCc2ccccc2)Cc2ccccc2)CC1 (stereo not drawn)	-2.3%	-2.8	10.6%	1.9%
CC(CCc1ccccc1)NC(=O)CSc1nnnn1C (stereo not drawn)	-2.8%	-3.8	13.9%	6.8%
COc1cc(OC)cc(-c2oc3cccnc3c2C#CCCO)c1	-17.3%	nt	3.0%	?

Following part.
SMILES	miR-21 reporter	GLA inh pH 4.5	Rango release inh	Rango-impB inh
CCOc1ccccc1NC(=O)C1=C(C)NC(=S)NC1c1cccs1 (stereo not drawn)	6.9%	1.9	13.4%	0.3%
Cc1c(Cl)c(C(=O)N2CCCC2)nn1C	-10.5%	12.8	-6.1%	5.6%
Cc1ccc(NC(=S)NCCN(C2CCCCC2)C2CCCC2)cc1	0.4%	-6.6	20.2%	-0.7%
COc1ccc(-n2c3c(cc(C(=O)NCC(=O)c4ccccc4)c2=O)C(=O)CC(C)(C)C3)cc1	2.3%	nt	3.8%	-0.1%
CCCCN(C)C(=O)C1CCN(C/C(C)=C/c2ccccc2)CC1	-5.9%	-3.1	-16.3%	0.4%
C=CCn1c(CCc2ccccc2)nnc1SCC(=O)OC	-1.8%	nt	0.9%	0.1%
O=C(COc1ccc(NC(=O)c2ccccc2[N+](=O)[O-])cc1)c1ccc(F)cc1	-2.4%	5.0	15.1%	-4.3%
CC1(C)Cc2c(sc(NC(=O)c3ccc(S(=O)(=O)N4CCCC4)cc3)c2C#N)C(C)(C)N1	-3.3%	nt	0.6%	1.0%
Cc1ccc(OCC(O)Cn2c(N3CCCCC3)nc3c2c(=O)[nH]c(=O)n3C)cc1 (stereo not drawn)	0.1%	nt	-0.5%	-3.2%
COc1cccc(OCc2cc(C(=O)N3CCC(c4ccncc4)CC3)no2)c1	22.0%	nt	0.6%	1.7%
CC(=O)n1cc(-c2ccncc2)c2ccccc21	-6.8%	-5.2	15.3%	4.9%
CN1CCN(S(=O)(=O)c2ccc3ccccc3c2)CC1	-6.2%	1.0	-13.4%	2.1%

Remaining list, next part:
SMILES	miR-21 reporter	GLA inh pH 4.5	Rango release inh	Rango-impB inh
Cc1cc(NC(=O)CSc2nc3c(sc4ccccc43)c(=O)n2CCCN2CCOCC2)n[nH]1	24.0%	2.0	-8.5%	0.4%
CCCc1cc(CNC(=O)C2CCC(=O)N(Cc3ccccc3OC)C2)on1 (stereo not drawn)	-3.0%	nt	3.6%	5.8%
Clc1ccc(Cl)c(OCCCCN2CCNCC2)c1	-16.0%	nt	0.2%	-1.3%
CS(=O)c1ccccc1-c1nc(-c2ccc(Cl)cc2)no1 (stereo not drawn)	-63.6%	-2.0	-2.1%	-0.3%
Cc1ccc(S(=O)(=O)N2CCOCC2)cc1NC(=O)COC(=O)c1ccc(Cl)s1	nt	nt	0.5%	-0.3%
CCN(CC)c1ccc(C2=NNC(=O)CC2C)cc1[N+](=O)[O-] (stereo not drawn)	-36.0%	0.9	0.6%	-1.9%
CC(=O)Nc1ccc(NC(=O)C(C)OC(=O)c2ccc(N(C)C)cc2)cc1 (stereo not drawn)	-10.3%	nt	-4.4%	1.7%
N#C/C(=N/Nc1ccc(S(=O)(=O)N2CCOCC2)cc1)C(N)=O	-4.7%	-0.7	-16.6%	-1.3%
O=c1cc(-c2ccc(Cl)cc2)nc(N2CCN(c3ccccc3)CC2)[nH]1	-2.2%	nt	8.1%	0.0%
CCOC(=O)c1cc(C#N)c(N2CCCC2)nc1-c1ccccc1	-0.4%	2.1	-26.2%	-3.3%
COc1ccc(OC)c(Nc2nc(N)nc(-c3cc4ccccc4o3)n2)c1	0.9%	-10.8	-19.1%	-3.9%
CN1CCN(CCNC(=O)Nc2ccc(Cl)cc2)CC1	-6.3%	nt	0.9%	4.4%

Other records
SMILES	miR-21 reporter	GLA inh pH 4.5	Rango release inh	Rango-impB inh
CCOC(=O)C1CCCN(Cc2ccc(OCC)cc2)C1 (stereo not drawn)	-3.0%	1.1	-0.6%	4.5%
CCn1c(N)nc2ccccc21	-11.7%	-0.5	4.6%	?
C/C(=N\NC(=O)Cc1ccc(Cl)c(Cl)c1)c1cccnc1	-6.2%	nt	-5.1%	-1.5%
Cc1ccccc1NC(=O)CNc1ccccc1C(=O)NCc1ccco1	-11.0%	10.8	5.7%	4.7%
COc1cccc(NC(=O)Cn2c(=O)c3c(ncn3Cc3ccccc3)n(Cc3ccccc3)c2=O)c1	-9.1%	4.0	9.7%	1.0%
CC1C=CCC2C(=O)N(c3ccc(OC(=O)c4cccs4)cc3)C(=O)C12 (stereo not drawn)	1.1%	-3.7	-12.0%	0.8%
Cc1nn(CSc2c(F)c(F)c(F)c(F)c2F)c(C)c1[N+](=O)[O-]	nt	nt	0.7%	0.0%
COc1cccc(OCc2cc(C3Nc4ccccc4C(=O)N3Cc3ccco3)ccc2OC)c1 (stereo not drawn)	-1.8%	nt	11.8%	0.2%
Cc1ccc2c(C)nc(Nc3nc(CSc4nc5ccccc5s4)cc(=O)[nH]3)nc2c1	nt	nt	2.8%	-1.2%
CC(=O)N1N=C(c2ccco2)CC1c1cc2ccc(C)cc2nc1Cl (stereo not drawn)	1.2%	2.8	14.3%	-0.6%
O=C(c1ccccc1F)N1CCN(S(=O)(=O)c2ccc(S(=O)(=O)N3CCCCCC3)cc2)CC1	3.9%	8.9	0.6%	1.0%
Cc1sc(NC(=O)c2ccco2)c(C(c2cccnc2)N2CCCC2)c1C (stereo not drawn)	-12.6%	1.0	10.7%	-3.2%

Remaining list, next part.
SMILES	miR-21 reporter	GLA inh pH 4.5	Rango release inh	Rango-impB inh
CC(Sc1ccc(S(=O)(=O)N2CCOCC2)cn1)c1ccccc1Cl (stereo not drawn)	nt	nt	30.1%	6.0%
Cn1c(N)c(C(=O)CSc2nc(C3CC3)n(-c3ccccc3)n2)c(=O)n(C)c1=O	nt	nt	-6.3%	0.5%
Cc1cc(Br)ccc1NC(=O)CN1C(=S)NC(C)(C)CC1C (stereo not drawn)	1.8%	-3.6	1.5%	2.6%
O=C(c1cccs1)N1CCCC(c2nc3c(nnn3Cc3ccc(F)cc3)c(=O)[nH]2)C1 (stereo not drawn)	-5.4%	nt	-6.3%	1.9%
C=CCSC(CC)(CC)C(N)=O	-4.2%	2.6	0.7%	-0.1%
O=[N+]([O-])c1cccc(NNS(=O)(=O)c2ccccc2F)c1	11.9%	nt	11.3%	3.5%
NC(=O)c1ccccc1NC(=O)CCc1ccccc1	-52.2%	-10.0	-4.5%	-3.7%
CCn1ccnc1CNC(=O)c1ccc2oc(C(C)C)nc2c1	-10.5%	nt	4.4%	0.6%
CCCCOc1ccc(C(=O)N2CCCC2C(=O)O)cc1 (stereo not drawn)	-9.8%	-1.1	2.7%	0.8%
COCc1cc(=O)n2[nH]c(-c3ccco3)cc2n1	-2.2%	3.1	-13.8%	0.3%
O=C(COC(=O)CCN1C(=O)C2CC=CCC2C1=O)NCCc1ccc(F)cc1 (stereo not drawn)	nt	nt	-1.0%	-2.7%
COc1ccc(OC)c(NC(=O)NCc2ccc(F)cc2)c1	-1.6%	-3.1	4.2%	0.0%

(more compounds)
SMILES	miR-21 reporter	GLA inh pH 4.5	Rango release inh	Rango-impB inh
Cc1ccc(CNC(=O)CCc2c(C)[nH]c(=O)c(C#N)c2C)cc1	-9.7%	nt	-3.6%	?
Cc1ccc2c(c1)C1(SCCS1)C(=O)N2	-32.0%	7.9	-4.6%	-0.3%
O=C(COC(=O)c1cc(-c2cccs2)nc2ccccc12)NCc1ccco1	-4.3%	10.5	-6.7%	-3.6%
O=C(COC(=O)c1ccco1)Nc1ccc(Br)cc1	-7.3%	6.8	-9.7%	1.5%
Cc1ccc(NC(=O)CS(=O)CC(=O)N(C(C)C(=O)NC2CCCCC2)C(C)(C)C)cc1 (stereo not drawn)	0.6%	-2.3	2.2%	3.7%
COc1ccc(N2CCN(S(=O)(=O)c3c(C)[nH]c(C)c3C(=O)N3CCCC3)CC2)cc1	-7.2%	nt	0.4%	0.5%
O=c1oc(-c2ccccc2)nc2c1cnn2-c1ccccc1	-2.4%	3.9	-0.1%	2.4%
Cn1c(N)c(C(=O)COC(=O)c2ccccc2C(F)(F)F)c(=O)n(C)c1=O	nt	nt	-3.7%	-1.5%
O=C(Nc1nccs1)c1cn(-c2ccccc2)nc1-c1ccncc1	18.3%	-5.2	0.4%	3.7%
O=S(=O)(c1cnc[nH]1)N1CCc2ccccc21	-5.4%	?	-26.4%	?
Cc1cc(C)n2c(SCC(=O)Nc3c(C)n(C)n(-c4ccccc4)c3=O)nnc2n1	-1.1%	14.0	-15.5%	-1.7%
CCCCOC(=S)NC(=O)c1sc2ccccc2c1Cl	-19.2%	6.2	-8.7%	-0.1%
